# Mtb betalactam: beta-lactam sensitization of Mtb H37Rv; M. tuberculosis H37Rv growth with meropenem, percent inhibition; hits of this screen are not shown here; inhibition, % at 25 µM; 330,000 compounds, 0.27% hits; AID 434955;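 active = about 74% or more and at least 40 points above the plate without the antibiotic, then above 30% in a dose series; inconclusive = first-round hits that could not be retested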;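 also: growth measured after seven days incubation then overnight dye step; 0% = bacteria only wells and 100% = bacteria with antibiotic; twin plates without the antibiotic show which effects depend on it; some results filed as inactive read as strong as hits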
# RecA intein inh: Mtb RecA intein splicing inhibition; P9WHJ3; inhibition, %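 (about 9 µM by stock and volumes)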; 290,000 compounds, 0.75% hits; cell-free RecA intein splicing, fluorescence; in the data active = inhibition above about 30%; inconclusive = no clear call, values can overlap the other calls;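 also: 0% = vehicle wells and 100% = reference inhibitor control wells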
# Target sequence (P9WHJ3 whole entry, looked up): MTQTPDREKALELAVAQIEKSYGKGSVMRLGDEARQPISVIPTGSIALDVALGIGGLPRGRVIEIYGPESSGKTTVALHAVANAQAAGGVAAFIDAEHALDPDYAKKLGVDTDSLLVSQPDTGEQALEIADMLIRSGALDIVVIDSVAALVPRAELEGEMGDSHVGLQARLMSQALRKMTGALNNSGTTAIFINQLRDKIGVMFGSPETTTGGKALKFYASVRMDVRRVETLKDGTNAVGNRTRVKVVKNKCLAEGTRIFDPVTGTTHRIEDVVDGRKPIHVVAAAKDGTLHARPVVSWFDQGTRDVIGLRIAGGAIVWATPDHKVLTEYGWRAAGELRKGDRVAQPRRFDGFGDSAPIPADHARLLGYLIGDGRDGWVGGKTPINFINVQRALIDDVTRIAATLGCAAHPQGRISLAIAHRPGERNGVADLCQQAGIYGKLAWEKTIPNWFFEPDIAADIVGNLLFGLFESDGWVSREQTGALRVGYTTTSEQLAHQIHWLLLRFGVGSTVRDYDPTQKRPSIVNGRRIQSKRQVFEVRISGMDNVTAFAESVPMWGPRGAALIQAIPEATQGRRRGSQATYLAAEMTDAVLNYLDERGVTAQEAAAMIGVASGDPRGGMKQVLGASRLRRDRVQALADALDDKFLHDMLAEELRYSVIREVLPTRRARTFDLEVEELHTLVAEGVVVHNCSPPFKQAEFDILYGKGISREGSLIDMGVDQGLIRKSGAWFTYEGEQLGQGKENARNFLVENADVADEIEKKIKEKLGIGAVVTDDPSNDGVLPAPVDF
# Mtb H37Rv: M. tuberculosis H37Rv growth inhibitors, H37Rv strain (AID 1626); 220,000 compounds, 0.95% hits; inhibition, % at 10 µM, or IC50 in µM where a hit was titrated; M. tuberculosis H37Rv growth inhibition; higher % means a stronger effect;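 active = confirmed in a dose series; inconclusive = inhibition above 80% but not taken into the dose series; inactive = below 80% or under 30% at every dose of the series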;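 also: bacteria incubated seven days before Alamar blue readout; 0% = bacteria only wells and 100% = bacteria with antibiotic wells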
# YopH inh: inhibitors of Yersinia enterocolitica YopH tyrosine phosphatase; inhibition, %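 (about 10 µM by stock and volumes)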; fluorescence Ex485/Em525; 140,000 compounds, 0.16% hits;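 active = inhibition of 50% or more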;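 also: controls were vehicle for no effect and minimum signal wells for full effect; inactives centre near -20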
# Arbovirus anti: arbovirus infection inhibition; arbovirus infection cell-based antiviral screen; inhibition, % at 10 µM; 200,000 compounds, 0.37% hits;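 active = inhibition from about 30%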;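 also: bluetongue infection of BSR cells; cell survival read as ATP light after 72 h; 0% = infected wells without compound and 100% = uninfected wells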
# Arbovirus anti repeat: further read-out of Arbovirus anti, marked with its call; inhibition, %; measured here: 10K subset replicate screen; many hits read low in the repeat;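 first of two repeat runs on a subset; 0% = infected and 100% = uninfected wells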
# An asterisk follows results filed as active; ? = inconclusive; . = no result given.
SMILES,Mtb betalactam,RecA intein inh,Mtb H37Rv,YopH inh,Arbovirus anti,others
C=CCN(C(=O)CNC(=O)c1ccco1)C(C(=O)NC1CCCCC1)c1ccc(OC)cc1OC (centres undefined),-3,1.6,-7%,-39,-3,
O=[N+]([O-])c1cccc2c3c([nH]c12)CCCC3,-4,1.9,-5%,.,.,
CCC(Sc1nc2ccccc2c2nc3ccccc3n12)C(=O)NCc1ccco1 (centres undefined),-2,-0.5,.,5,2,
O=C(c1ccc(Cn2c(=O)[nH]c3ccsc3c2=O)cc1)N1CCN(c2ccccc2)CC1,-1,0.7,3%,.,25,
C=CCn1c(SCC(=O)Nc2ccc3c(c2)CCC3)nc2ccccc2c1=O,2,5.8,2%,-16,-13,
CCCCn1c(N)c(N(CC(C)C)C(=O)c2cnc(C)cn2)c(=O)[nH]c1=O,-4,-2.3,.,.,.,
COc1cc(/C=C2\SC(=S)N(CCC(=O)N3CCN(C)CC3)C2=O)cc(OC)c1OC,1,3.5,.,.,.,
N#CC(C(=O)Nc1ccccc1)=C1Nc2ccccc2N1,95,0.8,-2%,-21,5,
CC(C)c1nc2cc3ccccc3cc2[nH]1,-7,2.0,3%,-41,-5,Arbovirus anti repeat=2
COc1ccc(C(=O)N2CCn3c2nc2ccccc23)cc1,-4,-2.5,5%,.,0,
O=C(Cn1ncc2c([nH]c3ccccc32)c1=O)NCC1CCN(Cc2ccccc2F)CC1,-1,-0.8,.,.,.,
CCCCOc1ccc(C(=O)Nc2ccc(C)cc2[N+](=O)[O-])cc1,2,-1.2,-8%,-49,0,
COc1ccc(C2(C)NC(=O)N(CC(=O)NC(C)c3ccc(CC(C)C)cc3)C2=O)cc1 (centres undefined),-1,3.5,.,.,.,
COc1ccc(C(=O)c2c(-c3ccsc3)oc3ccc(-c4ccc(OC)cc4)cc23)cc1,0,-2.6,6%,.,.,
CCCCn1c(N)c(N(CCOC)C(=O)c2ccc(S(=O)(=O)N3CCCCC3)cc2)c(=O)[nH]c1=O,-10,-1.3,.,.,.,
O=C(Nc1c2c(nn1-c1ccccc1)CS(=O)C2)c1ccc(Br)o1 (centres undefined),6,-0.3,.,.,.,
CCOc1ccc(C2c3cc(OC)c(OC)cc3CC(=O)N2c2ccc(OC)cc2)cc1 (centres undefined),-4,3.9,0%,-33,-24,
O=C(CN(CCc1ccccc1)S(=O)(=O)c1ccc(Br)cc1)N/N=C/c1ccc2c(c1)OCO2,10,-5.5,4%,-23,-9,
Cc1ccc(NC(=S)Nc2ccc3cn[nH]c3c2)cc1C,-1,8.3,2%,-30,17,
CCc1cccc(C)c1NC(=S)N(CCOC)C(C)c1ccco1 (centres undefined),1,2.9,1%,.,.,
O=[N+]([O-])c1ccc(NC(=S)N2CCN(c3ccccc3)CC2)cc1,-1,-6.1,.,-13,0,
CC(=O)Nc1ccc(C(=O)N/N=C/c2cc(Br)cc(Br)c2O)cc1,4,3.1,2%,.,-9,
COc1ccc(NC(=O)C2CCCN(S(=O)(=O)c3cccc4cccnc34)C2)cc1OC (centres undefined),4,6.1,0%,-29,5,Arbovirus anti repeat=4
N#CCCN(C1CCCCC1)S(=O)(=O)CCOc1ccccc1,-6,-1.7,-2%,3,8,
C(=C\c1ccccn1)/c1ccccn1,9,-0.4,2%,.,.,
CCCOc1ccc(/C=C2/C(=O)ON=C2C)cc1Cl,-5,-1.9,.,.,.,
CCOCCCNC(=O)CCCC1=NS(=O)(=O)c2ccccc2N1,-3,2.7,-1%,-17,6,
COc1ccc(N(C(=O)COc2ccccc2)C2C=CS(=O)(=O)C2)c(OC)c1 (centres undefined),-6,-0.3,-4%,-48,-4,
Cn1c(SCc2cc([N+](=O)[O-])cc3c2OCOC3)nnc1-c1ccccn1,5,-1.2,-4%,.,-3,
O=C(O)[C@H]1CCCC[C@H]1C(=O)NCCc1ccccc1,5,-1.1,-2%,-13,7,
COc1cc(S(=O)(=O)NCc2ccc3c(c2)OCO3)ccc1F,-2,-1.3,.,.,.,
CC(=O)c1ccc(Oc2cnccn2)cc1,-1,-1.4,3%,.,5,
CCOc1cc(CNCCc2ccc(S(N)(=O)=O)cc2)ccc1OCc1ccc(Cl)cc1,88,-14,54%,-3,-44,
CC1CCCCN1CCCNC(=O)c1ccc(Br)cc1 (centres undefined),0,2.1,.,.,.,
O=C(CN1CCN(c2ccc(F)cc2)CC1)NC(=O)NCc1ccco1,0,-6.0,-3%,.,2,
CCCN(C(=O)c1cc2c(s1)CCC2)c1c(N)n(Cc2ccccc2)c(=O)[nH]c1=O,0,5.6,.,.,.,
O=C1CN(S(=O)(=O)c2ccc(Cl)cc2)CC(=O)N1CCc1ccccc1,-17,1.6,-12%,-36,7,
CC(CC(=O)Nc1ccccc1)n1ccnc1 (centres undefined),-4,-0.8,3%,.,10,
Cc1ccccc1Oc1ncnc(N)c1[N+](=O)[O-],-3,-1.6,-1%,.,6,
C=CCSC1=N/C(=C/c2ccsc2)C(=O)N1c1ccccc1,3,-2.4,-2%,-24,-8,
CC12CCC(C(=O)N3CCN(c4ncccn4)CC3)(c3nc4ccccc4nc31)C2(C)C (centres undefined),-8,13,9%,-61,0,
COc1cc2c(cc1OC)CN(Cc1ccc(C)cc1)CC2,-7,-5.6,.,.,.,
CSc1ccc(CN2CCN(Cc3ccc([N+](=O)[O-])cc3)CC2)cc1,1,0.2,?,.,-11,
COc1ccc(NC(=O)CO/N=C2\CCCc3nonc32)cc1,-3,-0.3,2%,-25,0,
O=C(COc1ccc(S(=O)(=O)N2CCOCC2)cc1Cl)N1CCOCC1,-3,-1.3,.,.,.,
COc1cc(CCNC(=O)c2cnn3ccccc23)cc(OC)c1OC,-2,12,-1%,-40,-19,
O=S1(=O)CCN2C(=N1)SC1=C2CCN(Cc2ccccc2)C1,3,8.5,1%,-7,-3,
c1ccc(CNc2ncnc3scc(-c4cccs4)c23)nc1,57,1.4,3%,.,13,

# Overlap with the part before: four compounds, followed by the next part.
SMILES,Mtb betalactam,RecA intein inh,Mtb H37Rv,YopH inh,Arbovirus anti,others
O=C(COc1ccc(S(=O)(=O)N2CCOCC2)cc1Cl)N1CCOCC1,-3,-1.3,.,.,.,
COc1cc(CCNC(=O)c2cnn3ccccc23)cc(OC)c1OC,-2,12,-1%,-40,-19,
O=S1(=O)CCN2C(=N1)SC1=C2CCN(Cc2ccccc2)C1,3,8.5,1%,-7,-3,
c1ccc(CNc2ncnc3scc(-c4cccs4)c23)nc1,57,1.4,3%,.,13,
CCCC/C(C)=N/NC(=O)Nc1ccccc1,-4,3.0,-3%,-19,0,
C=CCc1cccc2cc(NC(C)=O)c(=O)oc12,-5,0.0,-3%,36,6,
Cc1ccc(C(NC(=O)N2CCCCC2)=C(Cl)Cl)cc1F,3,18,2%,-9,4,
Cc1cc(OCC(=O)N(C(C)C)C(C)C)cc(C)c1Br,1,1.5,-1%,-2,-9,
CCC12C(=O)C(CC)(C(c3ccccc3)=C1c1ccccc1)[C@@H]1C(=O)N(c3ccccc3)C(=O)C12 (some centres undefined),-1,12,21%,-13,12,
COc1ccccc1/C=C/C=C1\Oc2c(ccc(O)c2CN2CCN(CCO)CC2)C1=O,1,-7.7,0%,-25,12,
O=C(C[n+]1ccccc1)Nc1ccccc1C(=O)O,-1,.,-1%,.,-2,
Nc1c(C(=O)Nc2ccc3c(c2)OCCO3)nnn1Cc1ccccc1Cl,5,2.1,.,.,.,
COc1ccc(C(=O)N2CCc3cc(OC)c(OC)cc3C2c2cccc([N+](=O)[O-])c2)cc1 (centres undefined),.,6.2,.,-9,0,
O=C(CNc1cccc2ccccc12)N/N=C/c1ccccn1,54,0.8,.,.,.,
C/C(=N\NP(=S)(c1ccccc1)c1ccccc1)c1ccc(O)cc1O,-3,-3.9,-2%,.,.,
COc1ccc(CNC(=O)Nc2ccccc2)cc1,-4,-0.9,6%,.,.,
CC1=C2C3OC(=O)C(C)[C@@H]3CC[C@](C)(O)C2C2C3C4C5(C12)[C@H]1OC(=O)[C@@H](C)C1CC[C@]4(C)O[C@]5(C)[C@@H]3O (some centres undefined),1,-0.2,17%,-32,-3,
COc1ccccc1CCNC(=O)C(C)n1nc(C)c2c(C)n(-c3ccccc3)nc2c1=O (centres undefined),0,0.5,.,.,.,
CC(CC(=O)N1CCN(c2ccccc2F)CC1)c1ccccc1 (centres undefined),-10,-2.5,1%,-20,6,
CN(C)c1ccc(C=Nc2ccccc2)cc1,-6,-1.3,-8%,9,11,
CCN(CC)S(=O)(=O)c1ccc(F)c(C(=O)NCCCN2CCOCC2)c1,1,-0.8,-3%,-34,0,
Cc1ccc(C2SCC(=O)N2c2ccccc2)cc1 (centres undefined),-24,-0.5,.,.,.,
CC(=O)Nc1ccc(S(=O)(=O)NCc2ccc(C(=O)NCCN3CCCCCC3)cc2)cc1,-5,-0.4,2%,3,2,
NC(=O)CSc1nnc(-c2ccccc2F)n1C1CC1,-13,-3.7,.,.,.,
CCCc1cc(=O)[nH]c2nnc(SCC(=O)NC3CCCC3)n12,1,-3.2,.,.,.,
O=C(CSCc1ccccc1)Nc1ccc(Cl)cn1,45,1.6,0%,-21,-2,
COc1ccc(NC(=O)C2CCN(C(=O)[C@@H]3Cc4ccccc4CN3)CC2)cc1,-4,1.2,.,.,.,
CC(C)(C)n1nnnc1C(c1ccccc1F)N(Cc1ccco1)CC1CCCO1 (centres undefined),8,5.1,-1%,-27,-16,

# Nothing new here: 2 of the compounds above.
SMILES,Mtb betalactam,RecA intein inh,Mtb H37Rv,YopH inh,Arbovirus anti,others
COc1ccc(NC(=O)C2CCN(C(=O)[C@@H]3Cc4ccccc4CN3)CC2)cc1,-4,1.2,.,.,.,
CC(C)(C)n1nnnc1C(c1ccccc1F)N(Cc1ccco1)CC1CCCO1 (centres undefined),8,5.1,-1%,-27,-16,

# Other records.
SMILES,Mtb betalactam,RecA intein inh,Mtb H37Rv,YopH inh,Arbovirus anti,others
O=C(c1ccc2c(=O)n(CCc3ccccc3)c(=O)[nH]c2c1)N1CCN(c2ccc(F)cc2)CC1,7,-0.9,.,.,.,
CCOc1cccc(OCCn2cnc3ccccc3c2=O)c1,1,0.7,1%,0,-2,
O=C1NCCNC(=O)c2ccccc2OCCOc2ccccc21,5,-0.2,2%,-6,2,
Brc1ccccc1OCCCn1cnc2ccccc21,3,10,4%,2,11,
O=C(c1ccccc1)c1coc2ccc(O)c(Cl)c12,18,13,-1%,-49,9,
CC(C)(C)c1cc(NC(=O)CCl)n(-c2ccccc2)n1,97,38*,63%,.,.,
Cc1ccc(C(=O)N(CN2CCCC2=O)c2ccc(F)cc2)cc1C,?,-1.8,-5%,3,1,
CC(=O)c1ccc(N(C(=O)Cn2nnc3ccccc32)C(C(=O)NCc2ccccc2)c2ccccn2)cc1 (centres undefined),1,-5.0,6%,-21,-2,
O=C(NCc1cccnc1)c1cc(-c2ccco2)on1,-8,-0.9,-3%,-51,-10,
COc1ccc(OCCC(=O)NCCN2CCOCC2)cc1,-1,-4.3,-2%,.,1,
C(=N\Nc1nc(N2CCCCCC2)nc(N2CCCCCC2)n1)/c1ccccc1,3,-1.9,-2%,.,1,
CC1=C(C(=O)Nc2cc(C(=O)NCCC(C)C)ccc2C)SCCO1,-7,4.6,.,.,.,
CCN(CC(=O)Nc1c(F)cccc1F)C(=O)C1CCN(C(=O)c2ccc(Cl)cc2)CC1,-7,1.4,.,.,.,
O=[N+]([O-])c1ccc(C=Nc2ccc(Cl)c([N+](=O)[O-])c2)s1,.,.,?,.,-23,
COc1ccccc1-c1noc(CCC(=O)Nc2cccc(C(F)(F)F)c2)n1,1,4.7,-4%,-28,8,
Cc1ccc(C2=NOC(C)(c3nnc(-c4cccc(Cl)c4)o3)C2)cc1 (centres undefined),-11,5.8,-10%,.,.,
Cc1ccc(Cl)cc1N1CCN(C(=O)c2noc(C)c2[N+](=O)[O-])CC1,5,5.7,.,.,.,
Cc1csc(NC(=O)CNS(=O)(=O)c2cccs2)n1,9,0.6,-16%,-13,-1,Arbovirus anti repeat=6
CC1CN(c2ccc([N+](=O)[O-])c(NCCOc3ccc(Cl)cc3)c2)CC(C)N1 (centres undefined),100,-1.0,.,.,.,
Cc1ccc(C)c2[nH]c(=O)c(CCNC(=O)c3ccc4c(c3)OCO4)cc12,-1,-1.0,7%,15,-6,
CCOc1ccc(S(=O)(=O)Nc2cccc(C(=O)NCC3(N4CCCCC4)CCCCC3)c2)cc1,-4,-0.2,.,.,.,
COCCCNC(=O)c1ccc(CS(=O)(=O)c2ccc(OC)cc2)o1,0,-1.4,-11%,-45,-1,Arbovirus anti repeat=1
Cc1ccc2nc(N3C(=O)CNC3=S)sc2c1,80,1.0,?,.,.,
Cc1cc(C)cc(OCc2ccc(C(=O)NN)o2)c1,-8,1.6,-8%,.,.,

# This is a subset. The share of hits here may be higher or lower than overall.
